Source: PubChem (Fisher Drug Discovery Resource Center)
NPYLR7 agonist – agonists of mosquito NPYLR7 receptor, primary screen, cell-based, Aedes aegypti, calcium fluorescence, mosquito biting behavior; hit rate 0.15% among 270,000; Aedes aegypti neuropeptide Y-like receptor 7 (NPYLR7); activation, % at 10 µM; HEK293T NPYLR7/Galpha15, GCaMP6s calcium fluorescence; in the data active means activation above about 40%;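 further: 0% = vehicle and 100% = reference agonist at the receptor; some compounds past the cut are filed as inactive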
NPYLR7 agonist max-min – second read-out of NPYLR7 agonist, no call of its own (marks repeat the call); activation, %; measured here: Max-Min RFU normalised activation; some inactives read as strong as hits;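 span of the calcium signal over five minutes; 0% = vehicle and 100% = native peptide agonist; compound fluorescence can raise it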
An asterisk follows results filed as active; & = joins results of further samples.

Molecule,NPYLR7 agonist,NPYLR7 agonist max-min
Cc1ccc(CN(Cc2ccccc2)C(=O)CN(C(C)C)S(=O)(=O)c2ccc(Cl)c([N+](=O)[O-])c2)s1,-1,-6
Cc1ccc(/C=C/S(=O)(=O)NCCOc2ccc3nnc(-c4ccccc4)n3n2)cc1,-2,-3
COCCN(Cc1ccc(OS(=O)(=O)c2ccc(F)cc2)cc1)C(=O)C1CCC1,-3,0
Cc1cc(NC(=O)C(C)C)n(-c2nc(C)c(C)c(=O)[nH]2)n1,6,-1
CCc1nc(C)sc1C(=O)N1CCC(Cc2cccc(C(N)=O)c2)C1 (centres undefined),-5,-6
COC(=O)c1ccccc1C(=O)N(Cc1cccnc1)c1nc2c(Cl)cccc2s1,-8,-2
CNC(=O)c1ccc(OC)c(-c2ccccc2OC(F)(F)F)c1,-4,-8
CCOCCCN(CC(=O)N1CCc2sccc2C1c1ccccc1C)C(=O)c1cc(C(F)(F)F)cc(C(F)(F)F)c1 (centres undefined),21,20
CN(Cc1cc(=O)n2c3c(sc2n1)CCCC3)Cc1ccccc1Cl,13,4
O=C(NCc1ccco1)c1nn2c(c1Cl)NC(c1ccco1)CC2C(F)(F)F (centres undefined),7,0
OCCC1CN(Cc2cccn2-c2cccnc2)CCN1Cc1ccccc1F (centres undefined),-6,-4
O=[N+]([O-])c1cccc2cn[nH]c12,-8&4&-2&3,-11&-2&-6&-43
Nc1nonc1-c1noc(COc2ccc(Cl)cc2)n1,0,-3
CNC(=O)Cc1ccccc1NC(=O)c1cc(C)cc(C)c1,1,1
Cc1ccc(-c2nc3ccc(C)cn3c2NC(=O)C2CCCC2)cc1,-3,-4
C/C=C(\C)C(=O)N1CCN(c2cc(S(=O)(=O)N(CC)CC)ccc2OC)CC1,6,4
C=CCN1C(=O)/C(=C\c2ccc(OCC)cc2O)SC1=S,5,3
C[C@@H]1CN(C2(C(=O)O)Cc3ccccc3C2)C[C@H](C)O1,8,5
O=c1[nH]ccc2ccc(-c3ccn[nH]3)cc12,12,5
Cc1cccnc1C(=O)N1CCC(c2cc(Cc3ccccc3)[nH]n2)CC1,0,0
CCNC(=S)N(Cc1c(-c2ccc(F)cc2)noc1N1CCOCC1)C1CC1,-5,1
N#Cc1ccc(-c2csc(NC(=O)c3ccc(S(=O)(=O)N4CCCCC4)cc3)n2)cc1,-2,-4
COc1ccc(CN2CCNC(=O)C2CC(=O)N(C)Cc2ccon2)cc1OC (centres undefined),-2,-2
OCC1CCN(C2CCCN(Cc3ccc4c(c3)Cc3ccccc3-4)C2)CC1 (centres undefined),-1,-7
COc1cc(S(=O)(=O)N2CCCC2)ccc1Br,3,1

Arranged by number of heavy atoms (smallest number first): part of the list above
Molecule,NPYLR7 agonist,NPYLR7 agonist max-min
COc1cc(S(=O)(=O)N2CCCC2)ccc1Br,3,1
CN(Cc1cc(=O)n2c3c(sc2n1)CCCC3)Cc1ccccc1Cl,13,4
Cc1cccnc1C(=O)N1CCC(c2cc(Cc3ccccc3)[nH]n2)CC1,0,0
OCC1CCN(C2CCCN(Cc3ccc4c(c3)Cc3ccccc3-4)C2)CC1 (centres undefined),-1,-7
Cc1ccc(/C=C/S(=O)(=O)NCCOc2ccc3nnc(-c4ccccc4)n3n2)cc1,-2,-3
Cc1ccc(CN(Cc2ccccc2)C(=O)CN(C(C)C)S(=O)(=O)c2ccc(Cl)c([N+](=O)[O-])c2)s1,-1,-6
CCOCCCN(CC(=O)N1CCc2sccc2C1c1ccccc1C)C(=O)c1cc(C(F)(F)F)cc(C(F)(F)F)c1 (centres undefined),21,20

(list continues)
Molecule,NPYLR7 agonist,NPYLR7 agonist max-min
CCOC(=O)C1(Cc2ccc(OC)cc2)CCN(C(=O)c2ccc(N3CCCC3)cc2)CC1,4,0
CCN(CC)Cc1ccc2cc(COC(=O)Nc3ccc(C(=O)NO)cc3)ccc2c1,-3,-9
CC1CCN(C(=O)c2cccc(S(=O)(=O)N3CCCC3)c2)c2ccccc2S1 (centres undefined),2,10
CC(=O)NC12CC3CC(C1)CC(C(=O)OCc1cc(=O)n4cc(C)ccc4n1)(C3)C2,2,8
O=C1NCCN1CCn1ccnc1-c1ccc(-c2ccccc2Cl)o1,-3,-5
CS(=O)(=O)c1ccc(NC(=O)CCc2ccsc2)cc1,1,-1
O=C(Nc1ccc(-n2nc(OCc3ccc(F)cc3)nc2-c2ccc(C(F)(F)F)cc2)cc1)c1ccc2c(c1)OCO2,9,14
Cc1occc1C(=O)N1CCCC(N2CCN(Cc3ccc4c(c3)OCO4)CC2)C1 (centres undefined),7,6
O=S1(=O)N=C(Nc2cc(C(F)(F)F)ccc2Cl)c2ccccc21,-6,-8
CCN1CCc2cc(OC)c(OC)cc2C1C(C)NC(C)=O (centres undefined),6,15
COCCN(CCOC)S(=O)(=O)c1cc(OC)ccc1OC,-4,-5
CO[C@H](C(=O)NCCn1c(C)cc(C)nc1=O)c1ccccc1,4,2
CC1(Cc2ccc(C(F)(F)F)nc2)C(=O)Nc2ccc(-c3ccc(S(C)(=O)=O)cc3)cc21 (centres undefined),-1,1
O=C(NCCO)Nc1c[nH]c2ccccc12,1,-4
CC1(C(=O)Nc2ccccc2F)CCN1Cc1ccccc1Cl (centres undefined),9,1
Cc1ccccc1CN1C(=O)C(C)Sc2ccc(S(C)(=O)=O)cc21 (centres undefined),2,3
COc1ccccc1C(=O)N1CCCC(OCc2cccc(Cl)c2)C1 (centres undefined),-5,1
CCCOc1cc(Nc2ccc(NC(=O)Nc3ccc(F)c(Cl)c3)cc2)nc(C)n1,-1,-5
CC1c2cccn2CCN1C(=O)c1cc(CN2CCC(O)CC2)on1 (centres undefined),9,10
C=CCOC1C[C@](OCc2ccccc2C)(C(=O)NCC2CCCO2)C[C@@H](O)[C@H]1O (some centres undefined),31,30
CCc1ccc(C(=O)N(CCCOC)Cc2ccc(OS(C)(=O)=O)cc2)cc1,4,11
CCCCCCn1c(N2CCN(Cc3ccc(Cl)cc3)CC2)nc2c1c(=O)[nH]c(=O)n2C,16,6
CO[C@H]1C[C@@H]2C[C@H](c3ccccn3)OC[C@]2(O)[C@@H]1N(C)Cc1ccccc1,21,27
CNc1nc(N)c([N+](=O)[O-])c(NC2CCCCC2)n1,9,9
O=C(c1ccccc1-c1ncn[nH]1)N1CC(c2cccnc2)C1,4,0
CCCc1cc(N2C[C@H](O)[C@@H](N3CCN(C)CC3)C2)nc(C)n1,-3,-3
NC(N)=NCc1ccc(Cl)cc1Cl,6,9
Cc1nc2ncccn2c1C(=O)NCc1cnn(Cc2ccccc2)c1,0,-3
O=c1c(N=Nc2ccccc2Cl)c(-c2ccc([N+](=O)[O-])cc2)[nH]n1-c1nc(-c2ccccc2)cs1,-3,-12
CC(C)c1cc(N(C)CC(=O)NC(=O)NCc2ccco2)n[nH]1,-1,9
C=C(C)Cn1c(N)nc2c1c(=O)[nH]c(=O)n2C,8,3
Cc1nnc(-c2cccc(NC(=O)C3CCN(Cc4cccc(Cl)c4)CC3)c2)s1,2,0
CCc1ccc(-c2noc(CSc3nnnn3C)n2)cc1,0,4
Cn1c(Cc2csc(N)n2)n[nH]c1=S,5,2
O=C(NC(C(=O)NCc1ccco1)C1CCN(C(=O)c2ccccc2F)CC1)c1ccccc1 (centres undefined),5,2
CSCC(=O)N[C@H]1CCN2C(=O)[C@@H]3C[C@@H](OCC4CC4)CN3C(=O)[C@H]12,-6,-14
COCCN1CCN(Cc2noc(-c3ccc(OC)cc3)n2)CC1C (centres undefined),-1,-3
CCCc1c(O)c2ccccc2n(-c2ccccc2)c1=O,5,4
Cc1nc2sc(C(=O)N3CCOC(CCCC(C)C)C3)c(C)c2c(=O)[nH]1 (centres undefined),-2,-3
CC(C)C(O)CN(Cc1ccccc1)Cc1nc2scc(-c3ccccc3F)c2c(=O)[nH]1 (centres undefined),0,2
O=C(CCc1ccc2c(c1)OCO2)Nc1cccnc1N1CCCC1,8,7
CCOC(=O)c1nn(C)c2c1CN(C(=O)c1cc(-c3ccc(C)s3)[nH]n1)CC2,14,6
Cc1ncoc1C(=O)NC1CCCc2c1cnn2-c1ccc(F)cc1F (centres undefined),9,7
CCCCn1c(N)c(N(Cc2ccco2)C(=O)C2CCCC2)c(=O)[nH]c1=O,3,2
C=CCN(CC1CC(c2ccc(Cl)c(Cl)c2)=NO1)C(=O)COC (centres undefined),-4,2
CC1CCN(c2ccc(CNC(=O)C3(c4ccc(F)cc4)CC3)cn2)CC1,9,8
O=C(NN=Cc1cccc(Br)c1)c1cccnc1,-2,-9
O=C(NCc1ccncc1)c1cnc(N2CCN(Cc3ccccc3)C2=O)o1,2,-1
O=C(CSc1nnc(-c2cccs2)o1)N1CCOCC1,-2,-3
CCC(=O)NC(NC(=S)Nc1cccc(C(=O)O)c1)C(Cl)(Cl)Cl (centres undefined),-16,-21

Going on with the list:
Molecule,NPYLR7 agonist,NPYLR7 agonist max-min
CCOC(=O)COc1ccccc1C1CC(c2cccs2)=NN1C(=O)c1ccccc1 (centres undefined),-4,-9
CN1CCN(NS(=O)(=O)c2ccc(Cl)cc2)CC1,-3&8,-7&13
COCCCNc1nc2nonc2nc1N1CCN(C2C3CC4CC(C3)CC2C4)CC1 (centres undefined),2,1
CN(CC(=O)NCc1ccccc1F)Cc1cccc2ncccc12,27,18
CN1CC(=O)N2CCN(C3CCN(S(C)(=O)=O)CC3)CC2C1=O (centres undefined),-1,-1
CCC(=O)Nc1cccc(C(=O)NCc2nc(Cc3cccs3)no2)c1,6,4
COc1ccc(-c2ccoc2)cc1CNC1CCCC1,-6,-10
COC(=O)[C@@H]1C[C@@H](O)CN1C(=O)CCC(=O)NC1CCCCCC1,22,17
COc1cc(/C=N\NC(=O)CSc2nc3ccccc3s2)cc(OC)c1OC,-10,-13
O=C(NC1=NCCS1)c1ccccc1OCc1ccccc1,0,-1
COc1cc(-c2ccc(-n3cccn3)cc2)cc(OC)c1OC,-2,-3
CCOc1ccc2cc(C(N)=O)c(=Nc3cccc(C)c3)oc2c1,-8,-13
CCc1nc(C)sc1CNC(=O)CCc1nc(-c2ccccc2C)no1,-3,-4
Cc1cn2c3c(=O)n(CCN4CCOCC4)c(=O)n(C)c3nc2n1CC1CCCO1 (centres undefined),1,-5
COc1ccc(CN(Cc2nc3cc(C)ccc3o2)C(=O)c2cnn(C)c2Cl)cc1,2,-3
CCCc1nc(CN(C)C(=O)c2ccc3sc(N)nc3c2)no1,2,-1
CON(C)C(=O)c1cc(C)n(C(C)(C)C)n1,24,14
N#Cc1cc(N2CCOCC2)cc2ccccc12,-4,-5
COc1ccc(N2CCN(C(=O)C3CC=CCC3C(=O)NCCc3ccc(F)cc3)CC2)cc1 (centres undefined),-10,-16
CC1CCCCC1NC(=O)CSc1nncs1 (centres undefined),4,1
COc1cccc(CN(CCC(C)C)CC(O)COc2ccc(Cl)cc2)c1 (centres undefined),-2,7
CSc1ccc(CN2CCC2(C)C(=O)Nc2ccc3c(c2)CCN3C(C)=O)cc1 (centres undefined),-1,-3
CSCCSc1nnnn1-c1ccc(O)cc1,-3,-4
COc1ccc(NC(=O)CSc2nc(=O)n(Cc3ccncc3)c3c2CCCC3)cc1,1,-1
CCCn1c(=O)n(CC(=O)N2CCCCCC2c2cccn2C)c2ccccc21 (centres undefined),2,3
Cc1cccc(C(=O)Nc2ccc(-c3nc4cc(C(C)(C)C)ccc4o3)cc2)c1,-11,-14
Cc1ccc(OCC(=O)N2CCN(C(=O)c3cccs3)CC2)cc1,-6,17
CN1CCC(CNC(=O)CCSc2ccc3c(c2)OCCO3)C1 (centres undefined),7,6
Cc1nn(C)c(C)c1C(C)NC(=O)CSc1nnc(N)s1 (centres undefined),9,2
COCCN(CC(=O)Nc1nc(CC(=O)O)cs1)C(=O)c1ccc(Cl)c(Cl)c1,17,9
COc1ccc(-c2nc3ccccn3c2NC(=O)c2ccccc2Br)cc1,-5,-2
COc1ccc(-c2cc3ccccc3n2CC(O)CNCCO)cc1 (centres undefined),8,7
Cc1c(C(=O)NCc2cccc3ccccc23)sc(=O)n1Cc1ccccn1,11,6
COC1CCN(C(=O)c2cn(Cc3ccccc3Cl)nn2)CC1,5,5
COc1ccccc1OCC1c2ccsc2CCN1C(=O)CN(C(=O)Cc1ccccc1)C1CC1 (centres undefined),-4,-1
COCc1nc2ccccc2n1CCCCOc1ccc(C)cc1,2,8
Cc1cc(NC(=O)CCc2c(C)nn(-c3nc(C)c(C)c(=O)[nH]3)c2C)no1,14,3
CCn1nnc2c(Nc3ccc(C(=O)OC)cc3)ncnc21,6,11
c1ccc(-c2noc3c2CN(c2cc(N4CCOCC4)ncn2)CC3)cc1,26,13
CCCc1n[nH]c(=S)n1CC(=O)N(C)CCOc1ccc(C)cc1,9,7
Cc1cc(CN(C)Cc2nc3ccc(F)cc3[nH]2)n[nH]1,10,6
CC(=O)N(C)Cc1cccc(Nc2cc(C)nc(-c3ccccn3)n2)c1,3,2
Cc1ccc(-c2nc(CN3CCN(c4ncnc5ccccc45)CC3)c(C)o2)s1,6,2
Cc1c(C(=O)NCc2cc(CC(C)C)no2)cnc2ccnn12,5,-1
COc1ccc2c(c1)OC[C@@H]1CN(CCC#N)C(=O)CCN(C(=O)COc3ccccc3)[C@H]21,25,30
O=C(CSc1nc2c(c(=O)n1CCc1ccccc1)SCC2)N1CCCCCC1,16,2

The list is partial; the hit share may differ from the screen's.
